# Tg IFNy HTS – T. gondii growth inhibition under IFN-gamma. AID 1259416. activity change, negative = inhibition, %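 (about 20 µM by stock and volumes)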. 3.8% of 69,000 active. Toxoplasma gondii growth in IFN-gamma-treated host cells; stronger effect = lower value; reference of the scale not given here;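 active means below -70%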;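 further: host cells are HeLa cells infected with Toxoplasma gondii; parasite growth read as luciferase light; one replicate is shown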
# Numbers without * were called inactive; i = inactive; & = joins results of further samples.
SMILES,Tg IFNy HTS
CN(C)Cc1cn(CC2CCN(C(=O)c3ccc4[nH]ccc4c3)CC2)nn1,-37.2
C[C@H](O)C#Cc1ccc([C@H]2[C@H]3CN(CC4CC4)CCCCN3[C@H]2CO)cc1,4.3
C=CCN(Cc1cccc(OCC)c1)C(=O)c1ccc[nH]c1=O,-1.3
Cc1noc(C)c1NC(=O)N(C)C[C@H]1Oc2c(NC(=O)CCC(F)(F)F)cccc2C(=O)N([C@H](C)CO)C[C@@H]1C,-49.4
COc1cccc(NC(=O)Nc2ccc3c(c2)C(=O)N(C)C[C@@H](OC)[C@H](C)CN[C@@H](C)CO3)c1,-34.1
COC(=O)c1ccc(CNC(=O)CN2CCCC2c2c(C)noc2C)o1 (stereo not given),3.9
Cc1noc(C)c1S(=O)(=O)N(C)C[C@H]1OCc2cnnn2CCCC(=O)N([C@H](C)CO)C[C@@H]1C,211.6
CC(=O)N1CCOCC2(CCC(CNC(=O)c3ccnnc3)O2)C1 (stereo not given),-13.4
CN(Cc1ccccc1)C1CCN(S(=O)(=O)C2CC2)C(C(=O)O)C1 (stereo not given),3.9
Cc1nc2nnc3ccc(C(=O)N(C)Cc4ccccn4)cc3c2n1CC1CCCO1 (stereo not given),100.5
NC(=O)N1Cc2nccn2CC(Cn2cncn2)C1 (stereo not given),2.8
CC(C)C(=O)c1cc(-c2cnc(NCc3ccccc3)nc2)cn1C,122.8
CN(Cc1cc(-c2ccccn2)no1)C1CCC2(CCNCC2)CC1,10.5
CCN(C(=O)c1ccc2nc(C)[nH]c2c1)C1CCS(=O)(=O)C1 (stereo not given),-19.8
O=C(NCc1ccccc1)c1nc2c(o1)CN(c1ncccn1)C2,4.1
CC(=O)NC1=NN(C(C)=O)C2(CCCCC2)S1,13.1
Cc1cnccc1CN(C)C(=O)c1ccc(C#CC(C)(C)O)o1,7.2
CC1CCN(S(=O)(=O)c2ccc3c(c2)CCC(=O)N3CC(=O)NCc2ccco2)CC1,29.5
CNC(=O)c1ccc(-c2nc(CN3CCN(C(=O)Nc4cc(OC)cc(OC)c4)CC3)c(C)o2)cc1,223.2
Cc1ccsc1CN1C[C@H]2COC[C@@]2(CN2CCOCC2)C1,-2.8
Cc1cc(C(=O)N2CCC3(CC2)CC(Oc2cccnc2)CO3)c(C)o1 (stereo not given),6.7
CC(C)N(C[C@H]1[C@H](c2ccccc2)[C@H](CO)N1S(C)(=O)=O)C(=O)CN(C)C,-43.5
CN(C)CCCn1c(SCC(=O)N2CCCC2)nnc1-c1ccncc1,14.9
Cc1cc(C)cc(NC(=O)CN2CCC3(CC2)N=C(c2cccc(Cl)c2)C(=O)N3)c1,-58.2
O=C1CCCN=C(Nc2cccc(F)c2)S1,-11.9
NC(=O)c1sc(-c2ccsc2)cc1NC(=O)c1cccs1,-42.3
Fc1ccc(CNc2nc(-c3nnc(-c4cccc(Cl)c4)o3)nc3ccccc23)cc1,-22.6
Cc1occc1C(=O)N1CC[C@@H]2[C@H](CO[C@H]2Cc2nnc(C3CC3)o2)C1,-1.1
CNc1nc(C)c(C(=O)NC2CC(=O)N(c3ccccc3OC)C2)s1 (stereo not given),11.3
COC(=O)[C@@H]1C[C@@H](NC(=O)c2sc(C(C)C)nc2C)CN1C,11.4
C[C@@H]1CCCCO[C@H](CN(C)C(=O)c2ccncc2)[C@H](C)CN([C@H](C)CO)C(=O)c2cc(NS(=O)(=O)c3cccs3)ccc2O1,77.8
CCOCC(=O)N1Cc2nnn(C)c2C(COCc2ccccc2)C1 (stereo not given),-7.8
CC(c1ccon1)N(C)C(=O)c1ccc(-c2ccccc2Cl)o1 (stereo not given),51.1
Cc1cccc(S(=O)(=O)N2C[C@H](O)COC[C@H]3O[C@H](CC(=O)Nc4ccccc4)CC[C@@H]32)c1,-37.7
Cc1ccc(N2CC[C@H]3CN(C(=O)c4ccccc4)C[C@@H]3C2)nn1,-5.3
CN1CCN(Cc2ccc(-c3ccc(C(N)=O)cc3)nc2)CC1,-2.5
c1cc(-c2cc3ccccc3o2)cc(-n2cnnc2)c1,-51.2
Cc1[nH]nc(C2NCCc3[nH]cnc32)c1Cl (stereo not given),0.1
C=CCN1C(=O)CCC12CCC(NS(=O)(=O)c1cn(C)cn1)CC2 (stereo not given),194.5
CCN(C(=O)c1cnc(NC)nc1)C1CCN(C)CC1,-0.8

# Rewritten with each value named: entries from further up.
CC(=O)N1CCOCC2(CCC(CNC(=O)c3ccnnc3)O2)C1 (stereo not given)
  Tg IFNy HTS: -13.4
COc1cccc(NC(=O)Nc2ccc3c(c2)C(=O)N(C)C[C@@H](OC)[C@H](C)CN[C@@H](C)CO3)c1
  Tg IFNy HTS: -34.1
O=C(NCc1ccccc1)c1nc2c(o1)CN(c1ncccn1)C2
  Tg IFNy HTS: 4.1
c1cc(-c2cc3ccccc3o2)cc(-n2cnnc2)c1
  Tg IFNy HTS: -51.2

# The list continues:
SMILES,Tg IFNy HTS
CN1C(=O)CCc2cc(NC(=O)c3n[nH]c4ccccc34)ccc21,99.2
Cc1ccc(CN2CCC3(CC2)C(c2ccccc2)CC(=O)N3C)s1 (stereo not given),46.8
Cc1noc(COc2ccccc2OCC(O)CNC(C)(C)C)n1 (stereo not given),26.0
Cc1ncc(-c2ccncc2C)c(C2CCC(CNC(=O)c3oc(C)nc3C)CC2)n1 (stereo not given),-31.9
CO[C@@H]1CCN(C(=O)c2cc(C3CC3)on2)C[C@@H]1Cc1cccc(C)c1,10.9
O[C@@H]1CN(c2ncccc2Cl)CC[C@H]1c1ccc2c(c1)OCO2,-3.0
CCCNC(=O)c1ccc2ccc(N3CCN(CC4CC4)CC3)n2c1,7.0
CC1CN(Cc2c3cccn(CC(=O)N(C)C)c-3nc2C(F)(F)F)CC(C)O1 (stereo not given),-34.4
CN(C[C@@H]1[C@H](c2ccccc2)[C@H](CO)N1Cc1ccccn1)S(C)(=O)=O,14.5
Cc1ccccc1CNC(=O)Cn1ncc2c(N3CCCCCC3)ncnc21,102.8
CC(C)(O)CC[C@@H](O)[C@](C)(O)[C@@H]1CC[C@@]2(O)C3=CC(=O)[C@@H]4C[C@@H](O)[C@@H](O)C[C@]4(C)[C@@H]3CC[C@]12C,12.2
O=C(c1cccnc1)N1CC2(C1)[C@H](c1ccccc1)[C@H](CO)N2C(=O)CC1CC1,-32.2
NC(=O)N1CCC2(CC1)CC(=O)N(CC1CCCO1)c1ccccc12 (stereo not given),-8.4
Fc1ccc2nc(-c3ccc(Br)cc3)nc(SCC3CCCCC3)c2c1,24.8
CO[C@H]1CN(C)C(=O)c2ccc(NS(=O)(=O)CC(F)(F)F)cc2OC[C@@H](C)N(Cc2nccs2)C[C@H]1C,124.8
CC(C)NC(=O)c1cnc2n1CCN(Cc1nccn1C)C2,-11.0
C[C@@H]1CN([C@@H](C)CO)C(=O)c2ccccc2-c2ccccc2CO[C@H]1CN(C)S(=O)(=O)c1cccs1,-14.0
CCc1ncc(CN2CCC(O)(c3cccc(C(F)(F)F)c3)CC2)cn1,-1.3
NC(=O)C1CSSCCC(=O)NC(CCCCN=C(N)N)C(=O)NCC(=O)NC(CC(=O)O)C(=O)NC(Cc2c[nH]c3ccccc23)C(=O)N2CCCC2C(=O)N1 (stereo not given),0.0
O=C(Cn1nnc(-c2ccccc2)n1)NCc1cc(Cl)c2c(c1)OCCCO2,2.5
Cc1cc(C)nc(N2CCCC(C)(C(=O)N3CCOCC3)C2)n1 (stereo not given),-34.4
C=CCN1C(=O)CC[C@H]2[C@@H]1CCN2S(=O)(=O)CC,-51.1
CCCNC(=O)N(C)C[C@H]1Oc2cc(C#C[C@@H](C)O)ccc2S(=O)(=O)N([C@@H](C)CO)C[C@H]1C,-22.9
COc1ccc(NC(=O)N(C)C[C@H]2OCCCC[C@@H](C)Oc3ccc(NC(=O)c4ccncc4)cc3C(=O)N([C@@H](C)CO)C[C@@H]2C)cc1,i
Fc1ccc(C(c2ccc(F)cc2)N2CCN(Cc3cnc[nH]3)CC2)cc1,-2.9
CCCCCCCCCCCCCC(=O)OC(C)C,20.9
CCN1C(=O)N(CCCc2cccnc2)C(=O)C12CCN(Cc1ccc3c(c1)Cc1ccccc1-3)CC2,-55.9
COC(=O)C1CCN(Cc2cccc(C(=O)Nc3nccn3C)c2)CC1,0.6
COc1ccc(-c2nnc(Nc3ccc4c(c3)OCO4)c3ccccc23)cc1,-37.9
O=C(Nc1ccc2c(c1)OCO2)C1CCN(C(=O)c2ccc(Cl)cc2Cl)CC1,-69.4
O=C(CSc1ccccn1)N1CC(=O)N(C2CCCCC2)CC(OCc2cccnc2)C1 (stereo not given),2.2
Cc1ccccc1C1CCN(CCn2ccnc2-c2nc[nH]c2C)C1 (stereo not given),-0.2
O=C(Nc1ccccc1F)N[C@H]1CC[C@@H](CCNC(=O)C2CC2)O[C@H]1CO,-37.6
c1csc([C@H]2C[C@H]3CCN(Cc4ccoc4)C[C@H]3O2)n1,21.1
CCC(=O)Nc1cc(Cl)ccc1C(=O)N1C[C@H](OC(C)C)[C@@H](O)C1,-30.7
O=S(=O)(c1ccccc1)N1CC2CN(Cc3ccccc3Cl)CC2C1 (stereo not given),-5.5
COCc1cc(CNC(=O)c2cn(-c3ccccc3)nn2)[nH]n1,16.9
O=C(c1ccc(Br)cc1)N(C1=NCCCCS1)c1ccccc1,-35.7
O=C(CCc1ccc(O)cc1)c1c(O)cc(O)cc1O,-51.3&-8.2
CCCN(C/C=C/I)C1CCc2cccc(O)c2C1 (stereo not given),-70.0&12.5
COc1ccc(C(=O)O)cc1-c1cccc2ccnn12,-5.8
COc1cccc(-n2cc(CN(C)Cc3cccc4nccnc34)cn2)c1,-1.3
CCn1c(C2CCCN(Cc3cc(-c4ccccc4)no3)C2)nn(C)c1=O (stereo not given),-3.6
CCOc1ccc(CC(=O)N2CCCC3(C2)Nc2cccnc2NC3=NC2CCCC2)cc1 (stereo not given),15.3
Cc1nc(N2CCCC2)sc1C(=O)NCC1(C)COC1,-3.9
CC(C)CC(NC(=O)N1CCCCCC1)C(=O)NC(Cc1cn(C)c2ccccc12)C(=O)NC(Cc1ccccn1)C(=O)O (stereo not given),-6.8
Cc1ccc(CNC(=O)c2c(O)c3ccccc3n(-c3ccccc3)c2=O)cc1,72.2
O=C(CCc1nc2ccccc2[nH]1)N1CCc2c(ncnc2N2CCOCC2)C1,-0.8
COc1ccccc1CNC(=O)C[C@H]1CC[C@@H]2[C@@H](COc3ccc(NC(C)=O)cc3C(=O)N2C)O1,0.5
COc1cccc(OC)c1-c1cc(C(=O)NC2(C(=O)O)C3CC4CC(C3)CC2C4)nn1-c1ccc(C(=O)N(C)CCCN(C)C)cc1C(C)C (stereo not given),10.7
Cc1c(C)c(C)c(C(=O)CCc2cccc(NC(=O)C3CCC3)c2)c(C)c1C,-91.6*
Fc1ccc2nc(C3CCCCN3Cc3nnc(-c4ccco4)o3)[nH]c2c1 (stereo not given),-44.0
CN(C)C(=O)c1cccc(-c2ccc([C@H]3[C@@H](CO)N4CCCCN(CC5CCOCC5)C[C@H]34)cc2)c1,12.3
Nc1ccccc1NC1CCN(Cc2ccccc2)CC1,13.8
O=C(NCc1ccco1)c1ccc(Cl)cc1Cl,87.5
CCOC(=O)[C@H](CCc1ccccc1)N[C@H]1CCCN2CCC[C@H](C(=O)O)N2C1=O,5.6
COc1ccccc1S(=O)(=O)N(C)C[C@H]1OCc2cn(nn2)CCCC(=O)N([C@H](C)CO)C[C@@H]1C,-30.7
CCCn1cc(C(=O)N2CCC(O)(c3ccc(C)cn3)CC2)c(C)n1,15.4
CCc1nc(C)c(C(=O)N(C)Cc2ccc3nsnc3c2)o1,-3.0
CCOc1ccc(CN2CCC(N)(C(=O)O)C2)cn1 (stereo not given),1.2

# Continuation.
SMILES,Tg IFNy HTS
CC(=O)N1C[C@H](NC(=O)c2cscn2)C2OCCCC21 (stereo not given in full),-6.7
COCC(=O)N1C[C@H]2CCCC(OCc3cccnc3)[C@@H]2C1 (stereo not given in full),10.5
CCCCN1CCCC(Cn2cc(C3CCCC3)nn2)C1 (stereo not given),-5.5
Oc1ccc(-c2c(-c3ccccc3)nn3c(C(F)(F)F)cc(C(F)(F)F)nc23)cc1,2.8&-58.5
Cc1cnc(C)c(-c2cc(O)c3c(c2)CN(C(=O)c2occc2C)CCO3)n1,-50.0
CN1C[C@@H]2[C@H](c3ccccc31)[C@@H](CO)N2S(=O)(=O)c1ccccc1,7.2
C=CCN(c1ccc(C(=O)N2CCC(C(=O)OCC)CC2)cc1)S(C)(=O)=O,9.5
CCc1nccc(-c2c(-c3ccccc3)ncn2CCN2CCOCC2)n1,-80.1*
C=CCN1C(=O)C2(NCCc3c2[nH]c2ccccc32)c2ccccc21 (stereo not given),230.5
Cc1nc(-c2ccccc2)sc1CCNC(=O)C(=O)NC(C)c1ccccc1 (stereo not given),-10.8
CNC[C@@H]1OCCCC[C@H](C)Oc2ccc(NS(=O)(=O)c3ccc(F)cc3)cc2C(=O)N([C@@H](C)CO)C[C@@H]1C,41.1
CN(C)Cc1cnc2n1CCN(C(=O)CC1CC1)CC2,44.1

# Entries from the list above with bromine (2):
SMILES,Tg IFNy HTS
Fc1ccc2nc(-c3ccc(Br)cc3)nc(SCC3CCCCC3)c2c1,24.8
O=C(c1ccc(Br)cc1)N(C1=NCCCCS1)c1ccccc1,-35.7

# Given tab-delimited: entries from further up
structure	Tg IFNy HTS
CCc1nccc(-c2c(-c3ccccc3)ncn2CCN2CCOCC2)n1	-80.1*
CCCCN1CCCC(Cn2cc(C3CCCC3)nn2)C1 (stereo not given)	-5.5
Cc1cnc(C)c(-c2cc(O)c3c(c2)CN(C(=O)c2occc2C)CCO3)n1	-50.0

# The list is partial, so the mix of outcomes need not match the whole.
